Screening data (PubChem BioAssay)
VDR inh: inhibitors of human vitamin D receptor. 400,000 compounds, 0.93% hits. VDR-SRC2-3 peptide fluorescence polarization, 2 h. AID 504847. P11473. Potency, µM, for the others: max response, negative = inhibition, usual class: inhibitors; active = well fitted inhibition curve with a large enough effect; inconclusive = small, poorly fitted or top-dose-only effect, or another doubt; inactive = no such curve, though single readings can be large or run the other way; also: series mostly up to about 120 µM
Target sequence (P11473 whole entry, looked up): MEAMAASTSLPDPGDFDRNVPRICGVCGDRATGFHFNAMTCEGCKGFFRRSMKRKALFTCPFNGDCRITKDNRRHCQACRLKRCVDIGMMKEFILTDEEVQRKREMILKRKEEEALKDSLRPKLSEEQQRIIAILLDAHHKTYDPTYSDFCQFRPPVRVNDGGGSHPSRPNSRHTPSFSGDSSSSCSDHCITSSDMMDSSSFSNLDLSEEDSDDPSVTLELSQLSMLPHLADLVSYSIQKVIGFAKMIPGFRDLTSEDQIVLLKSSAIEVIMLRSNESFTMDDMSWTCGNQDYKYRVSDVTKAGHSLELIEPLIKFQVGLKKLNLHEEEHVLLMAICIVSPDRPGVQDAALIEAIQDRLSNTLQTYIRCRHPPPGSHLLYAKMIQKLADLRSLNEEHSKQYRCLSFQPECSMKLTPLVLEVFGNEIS
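Two reagent solutions held at 4 deg C in the dark were dispensed, compounds pinned at 23 nl, and the mixture incubated 2 h at room temperature. Read-out: fluorescence polarization of VDR–SRC2-3 peptide binding.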
* = called active by the depositor; & = joins results of further samples; [ ] = remark or other dose. % is scaled to controls: 0 for no effect and ±100 for the full control effect; potency is read from the fitted curve at half-maximal effect. This is a subset, so the mix of outcomes need not match the whole.

Sample of the layout, 14 compounds:
CCc1ccccc1NC(=O)c1cc2ncc(Br)cn2n1 was read as VDR inh 2%.
`CCCn1cnc2c(=S)nc(N)[nH]c21` gave VDR inh 0%.
For CC(=O)Nc1cccc(NC(=O)CN2C(=O)CCSc3ccccc32)c1 the results were VDR inh 7%.
For COC(=O)C1CCN(CC(=O)N(C)c2c(N)n(Cc3ccccc3)c(=O)[nH]c2=O)CC1 the results were VDR inh 83%[activator].
For Cc1cccc(NC(=O)c2cc(NC(=O)C3CCCCC3C(=O)O)ccc2Cl)n1 (stereo unspecified) the results were VDR inh -19%.
`CC1(C)c2[nH]c3ccccc3c2C[C@@H]2C(=O)N(c3cc(F)ccc3F)C(=O)N21` gave VDR inh -10%.
Screening O=C(NC1CCCCC1)c1n[nH]c2c1CC(c1ccccc1)CC2 (stereo unspecified) returned VDR inh -9%.
`Cc1cc2oc(=O)cc(CN3CCN(S(=O)(=O)c4cccs4)CC3)c2cc1C` gave VDR inh -19%.
For O=C(CCCSc1nc(-c2ccco2)cc(C(F)(F)F)n1)Nc1ccc2c(c1)OCO2 the results were VDR inh 12%.
`Cc1nn2c(Nc3ccc(F)cc3)c3c(nc2c1-c1ccccc1)CCC3` gave VDR inh 1%.
COc1ccc(NC(=O)C(CC(C)C)NS(=O)(=O)c2ccc3c(c2)CCN3C(C)=O)cc1OC (stereo unspecified) was read as VDR inh -4%.
For Cc1ccc(C)c(N2CCN(C(=O)CCc3nc(-c4ccccc4C)no3)CC2)c1 the results were VDR inh -8%.
Screening CC(C)(C)OC(=O)N1CCCC(C(=O)Nc2ccc(C(=O)NCCc3ccccc3)cc2)C1 (stereo unspecified) returned VDR inh -9%.
Cc1nccn1CCC1CCCCN1C(=O)CCc1nnc(-c2ccsc2)o1 (stereo unspecified) was read as VDR inh -21%.

The list itself, from the first entry:
CCc1ccccc1NC(=O)c1cc2ncc(Br)cn2n1 was read as VDR inh 2%.
`CCCn1cnc2c(=S)nc(N)[nH]c21` gave VDR inh 0%.
For CC(=O)Nc1cccc(NC(=O)CN2C(=O)CCSc3ccccc32)c1 the results were VDR inh 7%.
For COC(=O)C1CCN(CC(=O)N(C)c2c(N)n(Cc3ccccc3)c(=O)[nH]c2=O)CC1 the results were VDR inh 83%[activator].
For Cc1cccc(NC(=O)c2cc(NC(=O)C3CCCCC3C(=O)O)ccc2Cl)n1 (stereo unspecified) the results were VDR inh -19%.
`CC1(C)c2[nH]c3ccccc3c2C[C@@H]2C(=O)N(c3cc(F)ccc3F)C(=O)N21` gave VDR inh -10%.
Screening O=C(NC1CCCCC1)c1n[nH]c2c1CC(c1ccccc1)CC2 (stereo unspecified) returned VDR inh -9%.
`Cc1cc2oc(=O)cc(CN3CCN(S(=O)(=O)c4cccs4)CC3)c2cc1C` gave VDR inh -19%.
For O=C(CCCSc1nc(-c2ccco2)cc(C(F)(F)F)n1)Nc1ccc2c(c1)OCO2 the results were VDR inh 12%.
`Cc1nn2c(Nc3ccc(F)cc3)c3c(nc2c1-c1ccccc1)CCC3` gave VDR inh 1%.
COc1ccc(NC(=O)C(CC(C)C)NS(=O)(=O)c2ccc3c(c2)CCN3C(C)=O)cc1OC (stereo unspecified) was read as VDR inh -4%.
For Cc1ccc(C)c(N2CCN(C(=O)CCc3nc(-c4ccccc4C)no3)CC2)c1 the results were VDR inh -8%.
Screening CC(C)(C)OC(=O)N1CCCC(C(=O)Nc2ccc(C(=O)NCCc3ccccc3)cc2)C1 (stereo unspecified) returned VDR inh -9%.
Cc1nccn1CCC1CCCCN1C(=O)CCc1nnc(-c2ccsc2)o1 (stereo unspecified) was read as VDR inh -21%.
Screening CN(Cc1cc2ccccc2[nH]c1=O)C(=O)c1cccs1 returned VDR inh -8%.
For COc1ccc(/C=N/OCC(=O)N(Cc2ccc(OC)cc2)c2ccccc2C(=O)O)cc1 the results were VDR inh 0%.
`COc1ccc(CSc2nnc(-c3ccncc3)n2C)cc1F` gave VDR inh -6%.
CN(Cc1ccccc1)c1oc(COc2ccccc2F)nc1C#N was read as VDR inh 0%.
`COc1ccc(NC(=O)CCCCC(=O)Nc2ccc(OC)cc2)cc1` gave VDR inh 9%.
Screening Cc1nn(Cc2ccccc2)c(Cl)c1C(=O)NCCc1ccccc1 returned VDR inh -6%.
Screening COc1ccc(C(=O)/C=C/C(=O)N(Cc2ccccc2OC)C(C(=O)NC2CCCCC2)c2ccncc2)c(O)c1 (stereo unspecified) returned VDR inh -2%.
`O=C(CSc1ccc2nnc(-c3cccnc3)n2n1)Nc1ccc(F)cc1F` gave VDR inh 9%.
Cc1ccccc1Nc1nc(N)nc(CSc2nnc(C)n2C)n1 was read as VDR inh 2%.
For O=C(Nc1cccnc1)C1CCN(S(=O)(=O)c2cccs2)CC1 the results were VDR inh 6%.
For COc1cc2c(c(OC)c1OC)-c1ccc(OC)c(=O)cc1[C@@H](NC(C)=O)CC2 the results were VDR inh -4%&-9%&11%&5%&-1%.
Screening Nc1nonc1C(=O)NCCNC(=O)c1cccs1 returned VDR inh 4%.
Screening O=C(Nc1ccccc1F)c1nc(S(=O)(=O)Cc2ccccc2F)ncc1Cl returned VDR inh 14µM*.
`COc1cc(C(C)=O)ccc1OCC(O)CN1CCN(c2cc(C)cc(C)c2)CC1` (stereo unspecified) gave VDR inh 4%.
For COc1ccc(CC(=O)Nc2ccc(S(=O)(=O)N3CCCC3)cc2)cc1OC the results were VDR inh 1%.
For CC1=C(C(=O)OCCNC(=O)c2ccccc2O)C(c2ccccc2[N+](=O)[O-])C(C(=O)OCC2CCCO2)=C(C)N1 (stereo unspecified) the results were VDR inh 7%.
`CCOC(=O)C1CCN(C(=O)CCC(=O)NCCc2ccc(Cl)cc2)CC1` gave VDR inh 2%.
Screening Cc1nonc1NC(=O)OCCN1CCOC1=O returned VDR inh -3%.
CCOC(=O)C1(CCOC)CCN(C(=O)c2sccc2C)CC1 was read as VDR inh -10%.
`O=C1CC(N2CCC(c3nc4ccccc4o3)CC2)C(=O)N1c1ccc(F)cc1` (stereo unspecified) gave VDR inh -2%.
`CC1CCCCN1CCNC(=O)Cn1nc(-c2ccccc2)ccc1=O` (stereo unspecified) gave VDR inh 13%.
Cc1ccc(NS(=O)(=O)c2c(C)[nH]c(=O)[nH]c2=O)cc1F was read as VDR inh 4%.
Nc1nnnn1/N=C/c1ccccc1 was read as VDR inh 3%.
Cc1cc(C)nc(N/N=C/c2ccncc2)n1 was read as VDR inh 1%.
`O=C(NC(=S)NNC(=O)c1cccs1)c1ccc(Br)o1` gave VDR inh 1%.
Screening COc1ccc(NC(=O)CN2CCCCC2)cc1 returned VDR inh 0%.
CN(C)S(=O)(=O)c1cccc(COc2ccccc2C(=O)Nc2ccccc2)c1 was read as VDR inh 13%.
`CCN(CC(=O)Nc1ccc2c(c1)OCCO2)C(=O)c1cc(=O)[nH]c2ccccc12` gave VDR inh -13%.
Screening COCCNC(=S)N(CCc1c(C)[nH]c2ccc(F)cc12)Cc1ccco1 returned VDR inh -4%.
Screening COc1cccc(-c2nc(SCC(=O)NC3CCCC3)c(-c3ccc(F)cc3)[nH]2)c1 returned VDR inh -1%.
`CNS(=O)(=O)c1ccc(NC(=S)Nc2ccc3c(c2)OCO3)cc1` gave VDR inh -18%.
For Cc1cc(C)cc(Nc2cc(C)nc3nncn23)c1 the results were VDR inh 1%.
For CC1(C)CC(=O)C(c2ccccc2)(c2ccccc2)C(=O)C1 the results were VDR inh -28%.
`Cc1ccc(N2CC(O)=C(c3nc4ccccc4c(=O)[nH]3)C2=N)cc1C` gave VDR inh 1%.
`CN1CCN(CC(=O)Nc2cccc([N+](=O)[O-])c2)CC1` gave VDR inh -15%.
For CCSc1nc2c(c(=O)[nH]1)C(c1ccccn1)C1=C(CC(C)(C)CC1=O)N2 (stereo unspecified) the results were VDR inh -10%.
Screening C/C(=N\Nc1ccc([N+](=O)[O-])cc1[N+](=O)[O-])C(C)C(C)C (stereo unspecified) returned VDR inh -5%.
Screening COc1ccc(C(O)c2nc3ccccc3n2C(C)C)cc1 (stereo unspecified) returned VDR inh inconclusive.
Cc1noc(C)c1CSCC(=O)Nc1ccc(OC(F)F)c(Cl)c1 was read as VDR inh -12%.
Screening CCC(=O)N1CCc2cc(S(=O)(=O)N(CC)c3cccc(C)c3)ccc21 returned VDR inh -20%.
`O=C(O)CC(NCc1ccco1)C(=O)OCCCl` (stereo unspecified) gave VDR inh -1%.
`CCNc1nc(NCC)nc(N(n2cnnc2)S(=O)(=O)c2ccc(C)cc2)n1` gave VDR inh 6%.
Screening O=C(Nc1ccc(F)cc1)c1cc(Cl)sc1Cl returned VDR inh -5%.
`COc1ccc(-c2nnnn2CCc2ccccc2)cc1` gave VDR inh 0%.
`OC(COc1ccc2cc(Br)ccc2c1)CN1CCOCC1` (stereo unspecified) gave VDR inh 7%.
Screening CCc1ccccc1NC(=O)Cn1nc(CC)n2c(cc3sccc32)c1=O returned VDR inh -6%.
For CCn1c(=O)n(CC)c2cc(S(=O)(=O)Nc3cc(C)cc(C)c3C#N)ccc21 the results were VDR inh 0%.
`C[C@@H]1CC=C[C@H]2[C@H]1C(=O)N(Cc1ccccc1)[C@H]2c1ccc(F)c(-c2ccc(N(C)C)cc2)c1` gave VDR inh -6%.
For Cc1ccccc1-c1nc(CN(C)C(C)c2ccon2)c(C)o1 (stereo unspecified) the results were VDR inh -8%.
CC(C)CCn1c(O)c(N=NC(=O)Cn2ccc(C(F)(F)F)n2)c2ccccc21 was read as VDR inh 79µM*.
Screening CCCn1c(N2CCN(CC(=O)NCc3cccs3)CC2)nc2ccccc21 returned VDR inh 13%.
Cn1nc([N+](=O)[O-])nc1Sc1ccc(C(C)(C)C)cc1 was read as VDR inh 11%.
Screening Cc1ccc(Nc2nc(N)nc(CSC(=S)N3CCOCC3)n2)c(C)c1 returned VDR inh 11%.
Screening CCOc1ccc(/C(C)=N/N2C(=O)C(CC(=O)Nc3ccc(OC)cc3[N+](=O)[O-])SC2=Nc2cccc(C)c2C)cc1 (stereo unspecified) returned VDR inh 4%.
`COc1cccc(=O)c2c(C)n(-c3cc(C)cc(C)c3)c(C)c12` gave VDR inh -9%.
`CCOC(=O)C1=C(CN(CC)Cc2ccccc2)NC(=O)NC1c1ccc(Cl)cc1` (stereo unspecified) gave VDR inh -9%.
Screening CN1CC2(C)OC(=O)C(Cl)=C2CC1c1ccccc1 (stereo unspecified) returned VDR inh -27%.
Screening CCCC1OC2C[C@@H]3[C@H]4CCC5=CC(=O)C=C[C@]5(C)[C@H]4C(O)C[C@]3(C)[C@]2(C(=O)CO)O1 (stereo partly specified) returned VDR inh 6%.
Screening CCCN1CCN(C(=O)CN2C(=O)COc3ccc(S(=O)(=O)N(CC)CC)cc32)CC1 returned VDR inh -9%.
Screening CCc1ccccc1NC(=O)C(CC)Oc1ccccc1-c1nnc(-c2ccccc2)o1 (stereo unspecified) returned VDR inh 0%.
`COc1ccc(CCc2nnc(CCC(=O)N(C)Cc3ccncc3C)o2)cc1` gave VDR inh 21%.
`O=C(Nc1ccc(C(=O)N2CCN(c3ccccc3F)CC2)cc1)C1=CSCCO1` gave VDR inh -14%.
O=C(O)[C@@H]1C[C@H](C(=O)O)N1 was read as VDR inh -1%&-2%.
CC(C)Oc1ccc(C(=O)Nc2ccc(-c3nc4ccccc4s3)cc2)cc1 was read as VDR inh 13%.
`O=C(COC(=O)c1cc([N+](=O)[O-])ccc1N1CCOCC1)c1ccc(OC(F)F)cc1OC(F)F` gave VDR inh 13%.
CCc1ccc(NC(=O)CCS(=O)(=O)c2cc3c(cc2Cl)NC(=O)CO3)cc1 was read as VDR inh -2%.
Screening COC(=O)[C@H](C)N(Cc1ccc(Cl)c(Cl)c1)S(=O)(=O)CCN1CCCC1 returned VDR inh 5%.
For CC(=O)c1cccc(NC(=O)CN(c2ccc(F)cc2)S(C)(=O)=O)c1 the results were VDR inh -2%.
`COc1ccc(Br)cc1C(=O)Nc1cccc(NC(=O)c2ccco2)c1` gave VDR inh 12%.
Cc1ccc2c(c1)CCCN2C(=O)c1cc2ccccc2oc1=O was read as VDR inh 3%.
COc1ccc(/C=C/C(=O)C23CC4CC(CC(C4)C2)C3)cc1CN1CCOCC1 was read as VDR inh -27%.
Screening O=C(Nc1ccccc1)N(Cc1ccc2c(c1)OCO2)Cc1nc2ccccc2c(=O)[nH]1 returned VDR inh 8%.
For O=C(Nc1ccccc1)OCc1cnc(Cl)s1 the results were VDR inh 4%.
CC(C)(C)OC(=O)CNC(=O)c1[nH]cnc1C(=O)NC1CCNCC1 was read as VDR inh -3%.
Cc1ccc(S(=O)(=O)Nc2ccc3c(c2)n(C)c(=O)n3C)cc1 was read as VDR inh 4%.
`CC1CC(C)CN(c2oc(Cc3ccccc3)nc2C#N)C1` (stereo unspecified) gave VDR inh -7%.
Cc1ccccc1N1CCN(S(=O)(=O)c2nnc(NC(=O)c3ccccc3)s2)CC1 was read as VDR inh -8%.
For C=CCn1c(SCC(=O)NCC)nc2sc3c(c2c1=O)CCC3 the results were VDR inh 10%.
C=CCn1c(Cn2nnc3ccccc32)nnc1SCC(=O)N/N=C/c1cc(Br)cc(OC)c1O was read as VDR inh 1%.
For COC(=O)c1c(NC(=O)COc2ccc(Cl)cc2Cl)sc2c1CC(C)(C)NC2(C)C the results were VDR inh 5%.
For O=c1[nH]c(SCC2CCCCO2)nc2ccccc12 (stereo unspecified) the results were VDR inh 15%.
Screening COc1ccc(OC)c(NC(=O)CN2C(=O)C3(OCCCO3)c3ccccc32)c1 returned VDR inh 25%.
For O=C(NCC1CCCO1)c1cc(-c2ccccc2)nc2ccccc12 (stereo unspecified) the results were VDR inh 10%.
Screening COc1ccc(CNC(=O)c2cc3ccccn3n2)cc1OC returned VDR inh 7%.
`CCN(C1CCCCC1)S(=O)(=O)c1cc2c3c(c1)CCN3C(=O)CC2` gave VDR inh 29%.
Screening CC(C)N(C(=O)[C@H]1C[C@H](CC(=O)NCCN2CCOCC2)C(=O)N2CCc3c([nH]c4cc(-c5ccco5)ccc34)[C@]12C)C(C)C returned VDR inh -21%.
`O=C(c1cc(-c2cccc(O)c2)on1)N1CCCCCC1` gave VDR inh 3%.
Screening CCN(C(=O)CCc1nnc2ccc(N3CCC4(CC3)OCCO4)nn12)c1ccccc1 returned VDR inh -8%.
